Source: PubChem BioAssay (National Center for Advancing Translational Sciences (NCATS))
Rango dissoc inh: qHTS Assay for Inhibitors of RanGTP induced Rango (Ran-regulated importin-beta cargo) - Importin beta complex dissociation | Biochemical FRET Rango-importin beta, RanGTP-induced dissociation | Potency, µM (highest dose often 46.1 µM), inactives show top-dose activity change, negative = inhibition | Snurportin-1 (Homo sapiens) + GTP-binding nuclear protein Ran (Homo sapiens) + Importin … | AID 540253, 2011 | 0.071% of 340,000 active; active means falling FRET ratio curve, often poorly fitted, with flat reads before Ran was added; inconclusive means other falling curves, or compound fluorescence or quenching; inactive means flat or rising ratio curve;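 further: potency means the concentration at half of the fitted maximal effect; % of control where 0% means no effect; nearly all actives have a fitted effect of over 45% in size; -100% = wells without RanGTP and RCC1; the record marks most hits as doubtful in a second field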
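FRET read at 45 min, room temperature: inhibitors block the CFP/YFP signal rise when RanGTP (0.6 uM Ran, 2 mM GTP, 0.2 uM RCC1) frees Rango (0.1 uM) from importin beta (0.25 uM). Pre-read after 5 min compound exposure flags interference.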
miR-21 FLuc: qHTS Assay for Modulators of miRNAs and/orActivators of miR-21; 340,000 tested, under 10 active; Potency, µM (doses to about 38.3 µM), for inactives: at the highest dose reporter change, positive = more light; AID 2288, 2010; HeLa miR-21 FLuc reporter, luciferase, 48 h; active = well fitted rising curve with a large enough effect; inconclusive = small, poorly fitted or top-dose-only effect; inactive = no such curve, though single readings can be large or run the other way;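 further: % of control where 0% means no effect; miR-21 action dims this reporter so a rising signal means less miR-21 action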
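Compounds were titrated across several concentrations (up to approximately 40 uM) and incubated 48 hours with HeLa miR-21-FLuc reporter cells (miR-21 target sequence downstream of FLuc, endogenous miR-21). Readout was firefly luciferase luminescence after lytic detection reagent.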
GLA inh pH 4.5: qHTS Assay for Inhibitors of Human alpha-Galactosidase at pH 4.5 | Alpha-galactosidase A (Homo sapiens), P06280 | purified enzyme, 4-MU-alpha-Gal fluorescence, pH 4.5 | activity change, negative = inhibition, % at 105 µM | 230,000 tested, under 10 active; inconclusive = small, poorly fitted or top-dose-only inhibition, or a rising curve; inactive = flat fitted curve, though single readings scatter; no compound was filed as active;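 further: 0% = full activity with enzyme and -100% = basal without enzyme; dose as in the result columns while the protocol names 77 µM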
Target sequence (P06280 whole entry, looked up): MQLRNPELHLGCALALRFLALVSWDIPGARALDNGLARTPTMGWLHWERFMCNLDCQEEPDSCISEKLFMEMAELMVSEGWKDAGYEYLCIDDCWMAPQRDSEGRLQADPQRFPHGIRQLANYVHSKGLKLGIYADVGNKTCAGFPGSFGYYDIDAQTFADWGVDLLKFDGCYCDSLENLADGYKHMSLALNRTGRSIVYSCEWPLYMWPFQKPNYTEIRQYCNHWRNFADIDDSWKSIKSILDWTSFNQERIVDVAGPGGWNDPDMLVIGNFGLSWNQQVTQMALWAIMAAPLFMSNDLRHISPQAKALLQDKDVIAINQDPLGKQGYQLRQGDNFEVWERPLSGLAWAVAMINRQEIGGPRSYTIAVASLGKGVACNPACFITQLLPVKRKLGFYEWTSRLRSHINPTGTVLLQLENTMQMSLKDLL
Rango complex inh: qHTS Assay for Inhibitors of Rango (Ran-regulated importin-beta cargo) - Importin beta complex formation | Rango CFP/YFP FRET sensor + importin beta, 45 min | Potency, µM (series often up to 92.2 µM), for inactives: at the highest dose inhibition of complex formation | AID 540263, 2011 | Importin subunit beta-1 (Homo sapiens), Q14974 | 0.031% of 340,000 active; active = rising FRET ratio curve, often small or poorly fitted; inconclusive = mostly compound fluorescence or quenching in the first reads; inactive = flat curves in all reads;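 further: potency means the concentration at half of the fitted maximal effect; 0% = DMSO wells and 100% = buffer wells lacking importin beta; nearly all actives have a fitted effect of over 15% in size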
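FRET biosensor Rango (snurportin 1 IBB between N-terminal EYFP and C-terminal Cerulean), 50 nM in PBS/1 mM DTT/0.02% Tween-20/0.1% BSA, preincubated 5 min RT with compound; 0.125 microM importin beta added, 45 min RT, CFP/YFP FRET ratio read.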
The depositor's hits bear a star; ? = inconclusive; . = not tested or not shown; [ ] = remark or other dose.

SMILES | Rango dissoc inh | miR-21 FLuc | GLA inh pH 4.5 | Rango complex inh
Cn1nc(C(=O)N2CCN(c3ccc([N+](=O)[O-])cc3)CC2)c2c1-c1ccccc1S(=O)(=O)C2 | 5.4% | 0.3% | . | -4.4%
CCCn1c(CC)nc([N+](=O)[O-])c1Sc1ccc(C)cc1 | -3.7% | -1.7% | -1.7 | -0.1%
CC(C)(C)OC(=O)N[C@@H](Cc1ccccc1)c1nnc(SCC(N)=O)o1 | -5.0% | -1.4% | 4.3 | 1.7%
Cn1nnnc1SCc1nnc(-c2ccc(Cl)cc2)o1 | -12.7% | -43.0% | 0.9 | ?
Cc1ccc(C2CC2C(=O)NNC(=S)Nc2cccc(C)c2)cc1 (stereo unspecified) | -5.4% | 19.2% | -1.6 | -0.2%
O=C1CCCCCN1CSc1nc2ccccc2s1 | 0.0% | -5.4% | -4.3 | -0.5%
Cn1c(O)c(C=NCCCCCC(=O)O)c(=O)n(C)c1=O | -4.2% | . | . | 0.0%
COc1cc(C(C)=O)ccc1COc1ccc(C(=O)OCC(=O)NC(C)(C)C)cc1OC | -0.4% | -6.7% | 3.0 | -0.8%
COc1ccccc1Nc1nc(N)nc(CCl)n1 | -15.3% | 24.7% | -1.6 | -1.5%
O=C(/C=C/c1ccc(-c2cccc([N+](=O)[O-])c2)o1)N1CCOCC1 | -11.1% | -64.2% | -1.2 | -1.7%
CCOC(=O)C1CCCN(S(=O)(=O)c2cc(OCC(N)=O)c(C)cc2Cl)C1 (stereo unspecified) | -8.4% | -1.8% | -5.1 | -2.5%
CC(C)(C)C(C(=O)Oc1ccccc1)c1ccccc1 (stereo unspecified) | ? | . | . | -3.1%
CCOc1ccc(CNC(=O)CCc2cn(Cc3ccccc3)c3ccccc23)cc1 | -3.4% | -10.8% | -1.4 | -0.3%
O=C(Cc1ccc(Cl)cc1)NCC(=O)N1CCN(c2ccccc2)CC1 | 10.0% | 18.6% | . | 0.0%
O=c1oc(-c2ccc(O)c(O)c2)cc2cc(O)cc(O)c12 | -15.2% | . | . | ?
CC(C)c1ccc(NC(=O)C2CCN(c3ncnc4c3nc3n4CCCCC3)CC2)cc1 | 4.3% | -1.5% | . | 0.7%
C=CCn1c(SCC(=O)N2CCCC2)nc2c([nH]c3ccccc32)c1=O | 0.0% | -1.1% | . | -2.5%
CCN(CC)S(=O)(=O)c1ccc2[nH]c(=O)cc(C(=O)Nc3ccc(C)cc3)c2c1 | -4.1% | -24.3% | 3.4 | -3.3%
CC1CN(Cc2nc3c(c(=O)n(C)c(=O)n3C)n2CC(O)CO)CC(C)O1 (stereo unspecified) | 5.5% | -7.0% | -3.6 | -1.4%
c1csc(-c2ccnc3ncnn23)c1 | 6.5% | -8.9% | ? | -0.9%
COc1ccc(CCNC(=O)CSc2nnc3ccc(-c4cccnc4)nn23)cc1 | 13.0% | -0.5% | 8.0 | 0.3%
CCOC(=O)/C(C#N)=C/c1c(N2CCN(c3ccccc3)CC2)nc2ccccn2c1=O | -5.7% | -21.8% | . | 3.8%
Cc1ccc(S(=O)(=O)CCC(=O)Nc2nc(C(C)(C)C)cs2)cc1 | 0.3% | -4.1% | . | -4.1%
CN1N=C(C(F)(F)F)CC1=O | 35.0% | 0.6% | -19.5 | 2.8%
Cc1nnc2c3ccccc3ccn12 | 0.7% | . | . | 1.9%
Cc1[nH]c(C)c(S(=O)(=O)NCc2ccc(N(C)C)cc2)c1C(=O)N1CCCC1 | -3.2% | -0.8% | . | -0.6%
CCN(CC(=O)Nc1ccc(OC)c(OC)c1)S(=O)(=O)c1ccc(C)cc1 | -14.3% | 0.5% | -8.5 | -0.7%
COc1ccc(/C=C2\SC(=O)N(CC(=O)NC3C=CS(=O)(=O)C3)C2=O)cc1 (stereo unspecified) | -1.2% | -7.8% | . | 0.5%
C/C(=N\NC(=O)c1nnn(-c2nonc2N)c1-c1ccc2c(c1)OCO2)c1ccc(C)cc1 | 0.3% | -1.2% | . | 4.0%
Cc1ccc(NC(=O)CN(C)C(=O)c2cc(-c3ccco3)nc3ccccc23)cc1 | 0.3% | . | . | ?
Cc1[nH]c2ccccc2c1/C=N/Nc1ccc([N+](=O)[O-])cc1S(=O)(=O)Nc1ccc(Cl)cc1 | -2.2% | 5.5% | 1.0 | 10.9%
O=C(CN1CCN(c2ccccc2O)CC1)Nc1cc([N+](=O)[O-])ccc1Cl | 3.5% | 3.8% | 4.2 | ?
CCOC(=O)Cc1csc(-n2sc3ccccc3c2=O)n1 | ? | -19.2% | -9.5 | ?
O=C(CC1C(=O)NCCN1Cc1ccccc1C(F)(F)F)NCCn1cccn1 (stereo unspecified) | 1.8% | 2.9% | 3.2 | -3.5%
Cc1cc(C)c(C)c(S(=O)(=O)N2CCN(C(=O)c3ccccc3OCc3c(C)noc3C)CC2)c1C | 26.8% | . | . | -0.4%
O=C(CN1C(=O)c2ccccc2S1(=O)=O)c1cccc(Br)c1 | -3.5% | -0.7% | . | 0.2%
Cc1ccc(CNC(=O)Cn2cnc3c(OCc4ccccc4)ncnc32)o1 | -4.6% | . | . | -0.7%
Cc1cccc(-n2c(SCC(=O)NCc3ccco3)nc3ccccc3c2=O)c1 | -22.4% | -6.0% | -6.3 | 2.2%
Cn1cccc1/C=N/NC(=O)Cc1cccc2ccccc12 | 0.6% | 7.7% | 1.1 | -0.2%
O=[N+]([O-])c1ccc(-c2ccc(S(=O)(=O)N3CCOCC3)cc2)cc1 | -1.0% | 7.4% | . | -1.8%
CCCCCOCC1CC(C/C(C)=N/NC(N)=O)(C(=O)OCC)C(=O)O1 (stereo unspecified) | -13.0% | 1.6% | -2.2 | -0.9%
Cc1ccc(C)c(NC(=O)CSc2nncn2C)c1 | 5.6% | -1.4% | . | 7.2%
O=C(Nc1ccc2ccccc2c1)c1ccc(Cl)cc1Cl | 0.0% | -22.2% | 4.9 | 0.0%
COc1ccc(CNC(=O)COC(=O)/C=C/c2ccc(Cl)cc2)cc1 | -7.2% | -1.1% | 5.0 | 0.1%
O=c1c2c3c(sc2n2cnnc2n1C1CCCCC1)CCC3 | . | -3.0% | -9.6 | .
COc1cc(=O)oc(-c2ccccc2)c1C(C)=O | -8.8% | . | . | -4.6%
O=C(NC1CCCC1)C(c1ccc(N2CCOCC2)cc1)N(Cc1ccccc1)C(=O)c1ccco1 (stereo unspecified) | -13.3% | -0.7% | -10.2 | 0.3%
O=C(COc1ccccc1)Nc1ncn[nH]1 | 23.9% | -29.5% | 8.1 | -0.3%
CC1CN(C(=S)Nc2ccc(Br)cc2)CC(C)O1 (stereo unspecified) | -6.1% | -2.4% | . | -1.9%
CCN(CC)S(=O)(=O)c1cc(NC(=O)CSc2nnc(N)s2)ccc1C | 2.2% | . | . | -1.4%
O=C(NCCCN1CCOCC1)[C@@H]1CSC2c3ccccc3C(=O)N21 (stereo partly specified) | -5.0% | -4.4% | 7.0 | -1.0%
O=C(NCC(c1cccnc1)N1CCOCC1)c1ccc2c(c1)OCO2 (stereo unspecified) | -0.1% | -4.5% | -0.7 | -3.1%
O=C1CC(c2ccccc2)Cc2nc(NCc3ccco3)ncc21 (stereo unspecified) | 10.1% | -9.5% | ? | 1.7%
CCCCCCCCCCCCC(=O)CCCCC(=O)O | -9.4% | -2.5% | 1.3 | 0.0%
CN(C(=O)Cn1cnc2ccccc2c1=O)C1CCS(=O)(=O)C1 (stereo unspecified) | -8.4% | . | . | -1.7%
C/C(=N\NC(=O)Cc1ccc(Cl)cc1)c1ccc(F)cc1 | -10.0% | 0.2% | . | 1.0%
CCN(CC)C(=O)Cn1cc(S(=O)(=O)CC(=O)N2CCOCC2)c2ccccc21 | -0.9% | . | . | 1.5%
O=C(COc1ccc(Br)cc1Cl)Nn1cnnc1 | -20.5% | -2.9% | -0.4 | -1.4%
CC(=C/c1ccccc1)/C=N/NC(=O)c1ccccn1 | -4.1% | -3.1% | -6.6 | 0.0%
CCCCN(CC)Cc1ccc(CNC(=O)Nc2ccc(Cl)cc2)o1 | -0.4% | 11.2% | -8.5[21.1 µM] | 0.5%

At a glance, 10 of the compounds above.
SMILES | Rango dissoc inh | miR-21 FLuc | GLA inh pH 4.5 | Rango complex inh
O=C(COc1ccccc1)Nc1ncn[nH]1 | 23.9% | -29.5% | 8.1 | -0.3%
CC1CN(C(=S)Nc2ccc(Br)cc2)CC(C)O1 (stereo unspecified) | -6.1% | -2.4% | . | -1.9%
CCN(CC)S(=O)(=O)c1cc(NC(=O)CSc2nnc(N)s2)ccc1C | 2.2% | . | . | -1.4%
O=C(NCCCN1CCOCC1)[C@@H]1CSC2c3ccccc3C(=O)N21 (stereo partly specified) | -5.0% | -4.4% | 7.0 | -1.0%
O=C(NCC(c1cccnc1)N1CCOCC1)c1ccc2c(c1)OCO2 (stereo unspecified) | -0.1% | -4.5% | -0.7 | -3.1%
O=C1CC(c2ccccc2)Cc2nc(NCc3ccco3)ncc21 (stereo unspecified) | 10.1% | -9.5% | ? | 1.7%
CCCCCCCCCCCCC(=O)CCCCC(=O)O | -9.4% | -2.5% | 1.3 | 0.0%
CN(C(=O)Cn1cnc2ccccc2c1=O)C1CCS(=O)(=O)C1 (stereo unspecified) | -8.4% | . | . | -1.7%
C/C(=N\NC(=O)Cc1ccc(Cl)cc1)c1ccc(F)cc1 | -10.0% | 0.2% | . | 1.0%
CCN(CC)C(=O)Cn1cc(S(=O)(=O)CC(=O)N2CCOCC2)c2ccccc21 | -0.9% | . | . | 1.5%

Next section
SMILES | Rango dissoc inh | miR-21 FLuc | GLA inh pH 4.5 | Rango complex inh
O=C(CCCCCN1C(=O)c2ccccc2C1=O)Nc1ccccc1 | -11.3% | 1.0% | 4.7 | -5.5%
Cn1cc(CN2CCC(O)CC2)c(-c2ccc(Oc3ccccc3)cc2)n1 | 2.6% | -4.5% | -0.7 | 1.1%
N#CCOC(=O)C1c2ccccc2Oc2ccccc21 | 8.5% | 4.3% | . | 0.6%
COc1ccc(NC(=O)CCNS(=O)(=O)c2cc(Br)cnc2N)c(OC)c1 | ? | 5.8% | . | -4.3%
COc1cccc(CN(C(=O)c2ccccc2)C2CCS(=O)(=O)C2)c1 (stereo unspecified) | 9.9% | -5.8% | . | -0.8%
O=C1CC(c2ccco2)CC2=C1C1c3ccccc3C(=O)N1c1ccccc1N2 (stereo unspecified) | 1.1% | 1.8% | -5.2 | -0.5%
Cc1cc(C)n(C(=O)/C=C/c2cccs2)n1 | -0.2% | -4.6% | 1.9 | -5.9%
O=C(C1=C[C@@H](c2ccc3c(c2)OCO3)C[C@@H](OCCCCO)O1)N1CCN(Cc2ccc3c(c2)OCO3)CC1 | 1.1% | -0.5% | -1.8 | -1.8%
COc1cccc(CN2CCN(C(=O)c3cccc(OC)c3)CC2)c1 | 0.2% | -0.9% | . | -1.6%
CCN(CC)C(=O)[C@H]1C[C@H](CC(=O)NC(C)(C)C)C(=O)N2CCc3c([nH]c4ccc(Cl)cc34)[C@]12C | 7.2% | . | . | 4.6%
CCNC(=O)Cn1c(=O)c(=O)n(Cc2ccccc2)c2ccc(Cl)cc21 | 8.3% | 0.3% | 0.3 | 1.5%
C=CCn1c(Oc2ccc(C(=O)OC)cc2)nc2c1c(=O)n(C)c(=O)n2C | 12.1% | -5.1% | 4.0 | 2.9%
COc1cc2c(c(OC)c1CC=C(C)C)C[C@H](c1ccc(O)cc1O)CO2 | 7.8% | . | . | 1.7%
CC(C)Oc1ccc(C(=O)Nc2cccc3cccnc23)cc1 | -4.6% | -28.5% | -2.2 | -0.7%
CN1CCN(C(=O)c2cc(Br)cn2C)CC1 | 0.3% | -2.7% | . | 1.4%

A portion of the library; count on the stated rates, not on these rows.
